NPYLR7 agonist: mosquito NPYLR7 agonism | HEK293T NPYLR7/Galpha15, GCaMP6s calcium fluorescence | activation, % at 10 µM | 270,000 compounds, 0.15% hits | AID 1259423; in the data active = activation above about 40%;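 note: 0% = vehicle and 100% = reference agonist at the receptor; some compounds past the cut are filed as inactive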
NPYLR7 agonist max-min: second read-out of NPYLR7 agonist, no call of its own (marks repeat the call); activation, %; measured here: Max-Min RFU normalised activation; some inactives read as strong as hits;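 span of the calcium signal over five minutes; 0% = vehicle and 100% = native peptide agonist; compound fluorescence can raise it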
* = called active by the depositor; & = joins results of further samples.

molecule	NPYLR7 agonist	NPYLR7 agonist max-min
CC(C)N(Cc1nccn1Cc1ccc(C(F)(F)F)cc1)C(=O)c1ccccc1F	13	11
COc1ccc(NC(=O)Nc2nc(CCC(=O)NCCC3=CCCCC3)cs2)cc1	10	7
Cc1ccc(C(=O)NC2CC2)cc1NCC(=O)N(C)C1(C#N)CCCCC1	3	0
CC(C)(C)c1cc2nc(-c3ccccc3)cc(C(=O)N3CCN(C/C=C/c4ccccc4)CC3)n2n1	11	13
Cc1nc2c(C)cccc2cc1C(=O)N1CC[C@H](CO)[C@@H](O)C1	-2	-3
O=C(Nc1cccc(N2CCOC2=O)c1)c1cc(-c2cccc(Cl)c2)on1	4	5
Cc1ccc(C(=O)N2CCCC(Cn3cc(-c4ccccn4)nn3)C2)cc1C (stereo not drawn)	-4	-5
Cc1ccnc(NC(=O)CN(C)C(=O)c2c[nH]c3ncccc23)c1	18	14
O=c1[nH]c2ccc(Cl)cc2o1	7	12
CC(C)(C)c1ccc(S(=O)(=O)N(CC#N)c2ccccc2)cc1	4	1

Quoted from above, 2 compounds:
molecule	NPYLR7 agonist	NPYLR7 agonist max-min
CC(C)N(Cc1nccn1Cc1ccc(C(F)(F)F)cc1)C(=O)c1ccccc1F	13	11
COc1ccc(NC(=O)Nc2nc(CCC(=O)NCCC3=CCCCC3)cs2)cc1	10	7

Remaining list, next part:
molecule	NPYLR7 agonist	NPYLR7 agonist max-min
CCOC(=O)c1ccccc1NC(=O)c1sc(N)c(C(=O)OCC)c1C	-8	-14
COc1ccccc1C1SC(C)C(=O)N1CCN(C(=O)c1ccc(F)cc1)C(C)C (stereo not drawn)	-4	5
O=C(Nc1ccc(OC(F)(F)F)cc1)c1ccc2nc[nH]c2c1	3	6
CN1CCN(C(=O)CN(c2cc(C(F)(F)F)ccc2Cl)S(C)(=O)=O)CC1	12	10
CCn1cnnc1CN(C)Cc1nc(-c2cc(F)cc(F)c2)oc1C	-1	-1
COc1ccc(CC2CN(C(=O)c3cc4cccc(C)c4o3)CCO2)cc1 (stereo not drawn)	1	0
Clc1ccc(C2CCCN(Cc3nc(-c4cnccn4)no3)C2)cc1 (stereo not drawn)	6	4
Cc1cc(C)cc(C(=O)N2CCN=C2c2ccccc2)c1	2	2
Clc1cnccn1	11	1
O=C(c1cc(Cl)c2nc3ccsc3c(=O)n2c1)c1cc(Cl)ccc1O	7	1

Next section.
molecule	NPYLR7 agonist	NPYLR7 agonist max-min
CC(=O)NC(C(=O)NC1CC1)C(C)C (stereo not drawn)	-11	-17
O=C(c1ccc([N+](=O)[O-])cc1)N1CCC2(CC1)SCCN2C(=O)C1CCCC1	12	17
Fc1ccccc1Cc1noc(CN2CCN(c3nc4ccccc4s3)CC2)n1	17	12
Cc1nc2ccccc2c(=O)n1CC(=O)NCc1nc(-c2ccsc2)no1	0	-2
Cc1ccc(C)c(C(=O)N(CCn2cccn2)c2nc3c(F)cccc3s2)c1	-20	-27
CCOc1ccc(C(C2Sc3nc(C)nn3C2=O)N2CCCC(C)C2)cc1 (stereo not drawn)	2	0
CNC(=O)[C@@H]1C[C@@H](N)CN1C(=O)CN1C(=O)N(C)Cc2ccccc21	6	3
CC(=O)NC(CC(=O)Nc1cc(C)ccn1)c1ccc(Cl)cc1 (stereo not drawn)	10	8
O[C@@H]1C[C@@H]2C[C@H](c3ccccc3)OC[C@@]2(O)[C@H]1N1CCN(c2ncccn2)CC1	6	18
O=C(/C=C/c1cccs1)N1CCC2(CCCN(CC3CCCCC3)C2)C1 (stereo not drawn)	17	10

(more compounds)
molecule	NPYLR7 agonist	NPYLR7 agonist max-min
Cc1nc(CCNC(=O)c2cn3c(C)cccc3n2)sc1C	-1	-3
CCn1nnc2c(NCc3ccccc3OC)ncnc21	9	6
CCC(=O)N1CCN(C(=O)c2cn(C)cc3c(=O)n(-c4ccccc4)nc2-3)CC1	3	2
Cc1ccc(S(=O)(=O)N[C@@H](Cc2ccccc2)C(=O)CCl)cc1	5	-41
O=c1cc(CSc2ccc(C(F)(F)F)cc2[N+](=O)[O-])[nH]c(=O)[nH]1	-3	-4
CCCC1CCN(CCS(C)(=O)=O)C1 (stereo not drawn)	8	2
COc1ccc(N(CCC(N)=O)C(=O)CCl)cc1	12	5
CCCOc1cc(C)c(Cl)cc1S(=O)(=O)NC1CCCCC1	-6	-8
O=C(COc1ccc(Br)cc1)N1CCN(S(=O)(=O)Cc2ccccc2)CC1	5	-1
Cc1cc(OCC(=O)N2CCC3(CC2)NC(=O)NC3=O)c(C(C)C)cc1Cl	0	10

Next section.
molecule	NPYLR7 agonist	NPYLR7 agonist max-min
COc1cccc(CSc2nnc(CNC(=O)Nc3ccc(SC)cc3)n2-c2ccc([N+](=O)[O-])cc2)c1	-4	6
O=C(Nc1ccc(Cl)cc1Cl)N1CCC(N2CC=CC2)CC1	-3	-4
CC(OCC(O)CN)c1ccccc1 (stereo not drawn)	0	-1
CCOc1ccc(-c2ccc(OCCNS(=O)(=O)c3ccc4nc(C)sc4c3)nn2)cc1	-4	-5
CC1CCCCN1C(=O)CN1C(=O)NC(Cc2ccccc2)C1=O (stereo not drawn)	-2	-6
O=S(=O)(c1ccccc1C(F)(F)F)N1CCC(c2cn(Cc3cccc(F)c3)c3ccccc23)CC1	15	8
N#CC1(C#N)C2C=CC(C3C(c4ccccc4)=CC32)C1(C#N)C#N (stereo not drawn)	-5	-6
O=C(NCCc1csc(-c2cccnc2)n1)c1cccs1	-2	-4
CC(=O)Nc1ccc(SCCCC(=O)Nc2cnc3ccccc3c2)nn1	-1	-2
O=C1NCCN(CCc2ccccc2)C1CC(=O)N1CCN(Cc2cccc(F)c2)CC1 (stereo not drawn)	0	1

Pulled by compound from the list above:
molecule	NPYLR7 agonist	NPYLR7 agonist max-min
CC(=O)Nc1ccc(SCCCC(=O)Nc2cnc3ccccc3c2)nn1	-1	-2
O=S(=O)(c1ccccc1C(F)(F)F)N1CCC(c2cn(Cc3cccc(F)c3)c3ccccc23)CC1	15	8
N#CC1(C#N)C2C=CC(C3C(c4ccccc4)=CC32)C1(C#N)C#N (stereo not drawn)	-5	-6

Later entries:
molecule	NPYLR7 agonist	NPYLR7 agonist max-min
Cc1nc(N2CCc3[nH]nc(C4CCCC4)c3C2)cc(-n2cccn2)n1	-2	-4
O=C(CCC(=O)N1CCc2c([nH]c3ccccc23)C1)NCc1ccccn1	3	0
Cc1ncccc1C(=O)N1CCOC(Cc2cccc(C(F)(F)F)c2)C1 (stereo not drawn)	8	4
NC(=O)c1ccnc(N2CC[C@@H](N3CCOCC3)[C@H](O)C2)c1	1	0
O=C(NCCc1csc(-c2ncccn2)n1)C1CC2(CCNCC2)CN1 (stereo not drawn)	8	4
O=C(C(=O)N1CCOCC1)N1CCNCC1	0	4
O=C(CNC(=O)C1CC1(c1ccccc1)c1ccccc1)Nc1ccc(-c2ccccc2)cc1 (stereo not drawn)	-1	-5
CCC(C)Nc1cc(C)nc2c(-c3ccccc3Cl)c(C)nn12 (stereo not drawn)	-2	-5
CCOC(=O)C(c1ccc(OC)c(OC)c1)C1C=CC(NC(=O)COc2ccc(C(C)(C)C)cc2)C1 (stereo not drawn)	0	3
CCOc1ccc(-c2nc(Cn3ccn4nc(-c5ccc(OC)cc5)cc4c3=O)c(C)o2)cc1OC	9	10

Compound profiles, as listed above.
`CCC(C)Nc1cc(C)nc2c(-c3ccccc3Cl)c(C)nn12` (stereo not drawn) is listed with NPYLR7 agonist: -2; NPYLR7 agonist max-min: -5
`CCOc1ccc(-c2nc(Cn3ccn4nc(-c5ccc(OC)cc5)cc4c3=O)c(C)o2)cc1OC` is listed with NPYLR7 agonist: 9; NPYLR7 agonist max-min: 10
`O=C(C(=O)N1CCOCC1)N1CCNCC1` is listed with NPYLR7 agonist: 0; NPYLR7 agonist max-min: 4

Next compounds follow.
molecule	NPYLR7 agonist	NPYLR7 agonist max-min
Cc1ccc(C)c(OCCCC(C)(C)C(=O)O)c1	-2&-4&1	-10&-4&-6
CCn1nc(C(=O)NCc2cccc(NC(=O)NC3CC3)c2)ccc1=O	-1	43
COc1ccc(C(NC(=O)C2CCN(Cc3ccccc3)CC2)c2ccccc2C)cn1 (stereo not drawn)	3	-4
CC(NCc1cccc(F)c1)c1ccc2ccccc2c1 (stereo not drawn)	-3	-4
Nc1ncnc(NCc2ccccc2Cl)c1[N+](=O)[O-]	-3	-7
COc1ccc(-c2cn[nH]c2-c2ccc(OCCN3CCCCC3)cc2O)cc1	3	2
Cc1nnc(NC(=O)c2cccc(C(=O)Nc3nnc(C)s3)n2)s1	1	0
O=C(NCC1(N2CCOCC2)CCCCCC1)c1cn(CCc2ccccc2)nn1	6	4
Cc1nonc1OCCN1CC(C(=O)O)CC1=O (stereo not drawn)	3	2
CCOCC(=O)Nc1c2c(nn1CC(=O)NCCOC)CSC2	-6	1

(further entries)
molecule	NPYLR7 agonist	NPYLR7 agonist max-min
CCCc1nc(C)sc1C(=O)Nc1n[nH]c(C)n1	-18	-25
O=C(c1cnn2c1CCCC2)N1CCCC1c1ccccn1 (stereo not drawn)	10	4
Cc1nc(NCCc2cccs2)c2c3c(sc2n1)CCCC3	5	3
Cc1ccc(C(=O)NC(C)c2nc(CC(C)C)no2)cc1NC(=O)C1CC1 (stereo not drawn)	3	1
O=C1C2CCCCC2C(=O)N1CN1CCN(S(=O)(=O)c2cccs2)CC1 (stereo not drawn)	5	2
CSc1nc(C(=O)N2CCCC(C(=O)c3ccc(Cl)cc3)C2)cs1 (stereo not drawn)	3	0
Cc1cccc(N=Nc2c(O)[nH]c3ccc([N+](=O)[O-])cc23)c1	0	-8
CN1C(=O)C2(CCN(C(=O)CCc3cc(=O)[nH]o3)CC2)c2ccccc21	-4	-4
Cc1nc2n(n1)C(=O)C(C(c1ccc(Cl)c(Cl)c1)N1CCC(O)CC1)S2 (stereo not drawn)	-7	-13
Cc1ccc(CSCC(=O)N2CCCN(C(N)=O)CC2)cc1	3	1

More records follow:
molecule	NPYLR7 agonist	NPYLR7 agonist max-min
CC(=O)c1csc(NC(=O)Cn2c3ccccc3c(=O)c3ccccc32)n1	-2	-4
CCCN(CC1CC1)C(=O)CSc1nc(C)c(C(=O)OCC)cc1C#N	-16	-15
Cc1cccn2c(=O)c(C(=O)NCc3ccc(Cl)cc3)c(O)nc12	-2	5
O=C(c1nc2ccccc2s1)N1CCN(C(c2ccccc2)c2ccccc2)CC1	29	13
c1cncc(CNc2nc(-c3ccncc3)nc3c2CCNC3)c1	-4	-7
CCc1ccc(S(=O)(=O)Nc2ccc3c(c2)N(S(C)(=O)=O)CCC3)s1	1	-1
Cn1cc([N+](=O)[O-])cc1C(=O)O	1	7
O=C(Nc1nncs1)c1cc(-c2cccc(Cl)c2)n[nH]1	5	3
COc1cc(OC)cc(C(=O)N2CCN(c3nc(-c4cccc(C(F)(F)F)c4)nc(C)c3Cc3ccccc3)CC2)c1	-5	6
COc1cccc(C2C(C(=O)OC(C)C)=C(C)NC3=C2C(=O)CC(c2ccc(Cl)cc2)C3)c1OC (stereo not drawn)	4	3

(next part)
molecule	NPYLR7 agonist	NPYLR7 agonist max-min
CCOC(=O)c1c(C)c(C(=O)CN(C(=O)COc2ccc(Cl)cc2)C2CC2)c(C)n1CC	-6	-4
CCN1CCN(C2=C(c3c(C(C)C)[nH]n(-c4ccc(Cl)cc4)c3=O)C(=O)N(Cc3ccco3)C2=O)CC1	7	21
O=S(=O)(NC1CCCc2occc21)c1ccc(F)cc1 (stereo not drawn)	1	0
C/C=C(/C)C(=O)O[C@@H]1Cc2c(ccc3ccc(=O)oc23)OC1(C)C	-4	-2
COCC1CCCN(C(=O)c2ccc(N(C)Cc3ccsc3)nc2)C1 (stereo not drawn)	5	3
C1CCC(CNC2CCCN(Cc3noc(C4CC4)n3)C2)OC1 (stereo not drawn)	10	6
Cn1cccc1C1CCCN1CC(=O)Nc1c(F)cccc1F (stereo not drawn)	-8	-10
Cc1cccc(NS(=O)(=O)c2ccc(F)cc2[N+](=O)[O-])c1C	-1	1
COc1cc(S(=O)(=O)NCc2ccc3c(c2)OCO3)ccc1Cl	13	1
COC1C=CC(CNC(=O)c2cc3c(=O)n4cccc(C)c4nc3n2C)(OC)O1 (stereo not drawn)	8	9

More records follow:
molecule	NPYLR7 agonist	NPYLR7 agonist max-min
COC(=O)CCc1c(C)nn(-c2ccc(C(=O)N(CCN(C)C)Cc3ccccc3)cc2)c1C	25	12
NC(=O)c1nc(-c2ccccc2O)nc2c1[nH]c(=O)n2-c1cccc(Cl)c1	2	9
CN(C)C(CNc1nc2c(c(=O)[nH]c(=O)n2C)n1C)c1ccco1 (stereo not drawn)	2	2
CC(=O)Oc1c(C)cc(CNCc2ccc3c(c2)OCCCO3)cc1C	-2	-7
COc1cc(C)c(C(C)C)cc1S(=O)(=O)NCc1ccc2c(c1)OCO2	-3	-4
O=C(O)CCc1ccc(-c2cccc(Nc3ccc(Oc4ccccc4)cc3)n2)cc1	-10	-15
COc1cc(-c2nc(-c3cccc(C(F)(F)F)c3)no2)cc(OC)c1OC	-5	-12
CCCOC(=O)C1=C(C)NC2=C(C(=O)CC(c3ccc(OC)cc3)C2)C1c1ccc(O)c(OCC)c1 (stereo not drawn)	-5	-9
CC(C)C(=O)NCc1c(-c2ccccc2)nc2n1CCS2	16	11
N#CC1(c2cccc3ccccc23)CCOCC1	-11	-17

Following part.
molecule	NPYLR7 agonist	NPYLR7 agonist max-min
CCc1cnc(NC(=O)c2sccc2-n2cnnn2)s1	7	5
COc1cccc([C@@H]2CCCN(Cc3cc4n(n3)CCCNC4)C2)c1	6	13
Cc1c(-c2ccc(C(F)(F)F)cc2)oc2ccccc2c1=O	0	-2
Oc1ccc(N=Nc2ccc(OC(F)F)cc2)c2cccnc12	1	2
COc1ccc(-c2c3c(=O)n(CCN4CCOCC4)ccc3nc3ncnn23)cc1	2	2
CN(C)CCN(Cc1ccccc1)C(=O)c1ccc(CSc2nnc3ccccn23)cc1	-9	-14
COc1ccc(-c2cnc3ncnn3c2N2CCCN(C(=O)c3ccc(OC(F)(F)F)cc3)CC2)cc1	26	19

Screening data from PubChem.

A portion of the library (hit frequency here may not be typical).
